Sfp inh – qHTS Assay for Inhibitors of Bacillus subtilis Sfp phosphopantetheinyl transferase (PPTase) | 310,000 tested, 3.5% active | Biochemical Sfp PPTase activity, qHTS | AID 1490, 2009 | Potency, µM, for the others: max response, negative = inhibition, usual class: inhibitors | 4'-phosphopantetheinyl transferase ffp (Bacillus subtilis), Q9F4F7; active = well fitted inhibition curve with a large enough effect; inconclusive = small, poorly fitted or top-dose-only effect, or another doubt; inactive = no such curve, though single readings can be large or run the other way;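 note: the enzyme is Sfp with the accession as filed and its product quenches rhodamine fluorescence; potency is the fitted concentration of half-maximal effect; 0% = enzyme reaction without inhibitor and -100% = no enzyme wells; top concentration of the series not given in the record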
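Step 1, compound plus 15 nM Sfp-PPTase, 15 min, room temperature. Step 2, add rhodamine-CoA (5 uM) and BHQ-2-YbbR (12.5 uM). Step 3, read 525/598 nm fluorescence at 0 and 30 min.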
TRPV1 potentiator – HTS Assay for Compounds that Act as Potentiators of the Vanilloid Receptor 1 | TRPV1-expressing cells, Fluo-8 calcium influx, capsaicin EC20 potentiation; host cell line not named in the record; control for the full effect not named in the record | Transient receptor potential cation channel subfamily V member 1 (Homo sapiens), Q8NER1 | 320,000 tested, 0.02% active | potentiation, % at 8.33 µM | AID 540277, 2011; active means potentiation above 80%; inconclusive means 30% to 80%; inactive means below 30%; note: 0% is about no effect
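Cells expressing TRPV1 were dye-loaded with Fluo-8 and read kinetically: 10 s baseline, 3 min after compound (agonist portion), then 2 min after EC20 capsaicin (allosteric enhancer portion). Calcium-bound dye fluorescence at 480/520 nm.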
TRPML1 blocker – qHTS for Inhibitors of the Human Mucolipin Transient Receptor Potential 1 (TRPML1). Mucolipin-1 (Homo sapiens), Q9GZU1. activity change, negative = inhibition, % (concentration not given with the values). TRPML1-inducible cells, Ca2+ dye fluorescence, FDSS; active compounds read low; inhibition of EC80 agonist-evoked calcium signal. 390,000 tested, 0.02% active; in the data active means activity change below about -50%; inconclusive means about -30% to -50%; inactive means above about -30%;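 note: stimulus is agonist 54-4 at its EC80 concentration; % is set by controls: 0 for no effect and ±100 for the full control effect; the text of the record puts the active cut at -80%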
Target sequence (Q9GZU1 whole entry, looked up): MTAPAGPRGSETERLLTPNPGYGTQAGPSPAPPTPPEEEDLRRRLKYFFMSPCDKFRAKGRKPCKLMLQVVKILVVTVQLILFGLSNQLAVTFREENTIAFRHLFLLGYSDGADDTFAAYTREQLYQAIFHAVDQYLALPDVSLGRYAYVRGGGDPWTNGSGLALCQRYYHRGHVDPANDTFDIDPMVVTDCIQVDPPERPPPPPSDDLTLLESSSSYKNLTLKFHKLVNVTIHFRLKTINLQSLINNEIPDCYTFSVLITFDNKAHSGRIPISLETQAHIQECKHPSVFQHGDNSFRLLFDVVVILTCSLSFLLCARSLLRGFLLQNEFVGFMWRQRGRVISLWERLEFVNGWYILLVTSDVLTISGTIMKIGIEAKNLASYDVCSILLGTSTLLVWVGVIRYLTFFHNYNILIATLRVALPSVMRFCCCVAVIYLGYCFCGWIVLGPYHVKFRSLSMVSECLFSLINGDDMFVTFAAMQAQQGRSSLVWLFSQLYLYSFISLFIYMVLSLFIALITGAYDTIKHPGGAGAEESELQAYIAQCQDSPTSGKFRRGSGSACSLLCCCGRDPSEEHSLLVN
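Tet-induced TRPML1-DL cells loaded with Ca8 no-wash calcium dye were read kinetically on FDSS. Compound addition was followed by EC80 agonist 54-4 (4 uM final); inhibition was read over 110 s.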
Menin-MLL FL inh – qHTS Assay for Inhibitors Targeting the Menin-MLL Interaction in MLL Related Leukemias: Competition With Fluorescein Labeled MLL-derived Peptide | Fluorescence polarization, fluorescein-MLL peptide displacement from menin | FP activity change, % at 61.4 µM | 290,000 tested, under 10 active; inconclusive = falling polarisation curve, or a change in total fluorescence; inactive = total fluorescence flat and polarisation flat or rising; no compound was filed as active; the % refers to the polarisation; negative = inhibition;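 note: % of control where 0% means no effect; inhibitors lower the polarisation; unlabelled MLL peptide was the positive control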
ClpP mod – qHTS Assay for Activators of ClpP; ATP-dependent Clp protease proteolytic subunit (Bacillus subtilis (strain 168)), P80244; purified B. subtilis ClpP, FRET peptide cleavage, 20 min; 340,000 tested, 1.9% active; Potency, µM (highest dose often 57.5 µM), for inactives: top-dose activity change, negative = active; active = well fitted falling curve with a large enough effect; inconclusive = small, poorly fitted or top-dose-only effect; inactive = no such curve, though single readings can be large or run the other way; note: potency is the fitted concentration of half-maximal effect; the source files actives as falling curves though it sought activators and does not explain the sign; nearly all actives have a fitted effect of over 65% in size; many hits overshoot -100%
Target sequence (P80244 whole entry, looked up): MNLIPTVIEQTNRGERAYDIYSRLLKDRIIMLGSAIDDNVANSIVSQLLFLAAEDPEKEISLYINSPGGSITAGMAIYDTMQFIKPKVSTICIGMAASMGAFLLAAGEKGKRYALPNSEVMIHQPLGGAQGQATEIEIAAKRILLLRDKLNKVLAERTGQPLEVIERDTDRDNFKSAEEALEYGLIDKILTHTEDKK
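FRET quenching reversal measured ClpP activation: 10 microg/mL B. subtilis ClpP at pH 8 with the FRET-FV decapeptide, read at 430 nm after 320 nm excitation. The 20-min minus 0-min signal was scaled between DMSO/no-enzyme wells and ADEP (5.8 microM final).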
gsp antag – qHTS for Antagonists of gsp, the Etiologic Mutation Responsible for Fibrous Dysplasia/McCune-Albright Syndrome: qHTS. gsp-mutant cells, cAMP HTRF, 30 min; control for the full effect not named in the record. Potency, µM (titrated, usually from 76.9 µM), for inactives: at the highest dose activity change, negative = inhibition, hits mostly inhibitors. 340,000 tested, 0.4% active; active = falling curve of any shape with a large fitted effect; inconclusive = falling curve, mostly with a smaller effect; inactive = flat or rising curve; cell line not stated here;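 note: intracellular cAMP measured with PDE inhibitor Ro 20-1724 present during compound exposure; potency is the fitted concentration of half-maximal effect; % is set by controls: 0 for no effect and ±100 for the full control effect; nearly all actives have a fitted effect of over 65% in size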
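HTRF cAMP read-out (cAMP-d2 plus anti-cAMP antibody-K in lysis buffer, 30 min RT). Before lysis, cells are exposed to compounds with […] for 30 min at 37C in DPBS containing Ca/Mg, BSA and Tween 20.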
gsp ag – qHTS for Agonist of gsp, the Etiologic Mutation Responsible for Fibrous Dysplasia/McCune-Albright Syndrome: qHTS; 340,000 tested, 0.13% active; Potency, µM (top dose mostly 76.9 µM), without a hit: top-dose activation (cAMP increase), most hits filed as activators; AID 624287, 2012; gsp mutant cells, cAMP HTRF, 30 min; control for the full effect not named in the record; active = well fitted activation curve with a large enough effect; inconclusive = small, poorly fitted or top-dose-only effect, or another doubt; inactive = no such curve, though single readings can be large or run the other way; cell line not stated here;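 note: phosphodiesterase inhibitor Ro 20-1724 added with compounds to block cAMP breakdown; potency is the fitted concentration of half-maximal effect; nearly all actives have a fitted effect of over 60% in size; about a fifth of the inactives were tested at one dose only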
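Cells stably selected in G418 were plated at 2000/well, grown 16-24 hr, then given compounds in DMSO with the PDE inhibitor […] (300 uM solution added) for 30 min at 37C; cAMP was read by HTRF.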
Numbers without * were called inactive; ? = inconclusive; . = no result given; & = joins results of further samples; ! = not active in a repeat; [ ] = another dose, or the depositor's remark.

Structure	TRPML1 blocker	gsp ag	Menin-MLL FL inh	ClpP mod	gsp antag	TRPV1 potentiator	Sfp inh
COc1cccc(N2CCN(c3c4c(nc5ncnn35)CCC4)CC2)c1	2	-3%	4.8	0.3%	?	-24	-4%
COc1ccc(/C=N/NC(=O)CN2CCCCCCC2)c(C)c1C	12	15%	-7.6	-2.3%	3%	-2	-2%
O=C1NC(=NCc2ccccc2)S/C1=C/c1ccc(O)cc1	27	21%[15.4 µM]	-3.5	-0.3%	14%	13	25µM*
C#CCN(Cc1ccco1)C(=O)c1cc(COc2ccc(F)cc2Cl)on1	6	5%[15.4 µM]	-1.8	.	2%	3	13µM*
O=C(NCCc1ccccc1)C(c1ccccc1F)N(C(=O)c1csnn1)C1CC1 (configuration not stated)	4	10%	4.5	.	0%	22	19%
O=C(N/N=C/c1ccc2nccnc2c1)c1ccncc1	9	17%	-5.7	-2.6%	7%	-5	16%
COc1ccc(N(CC(=O)N2CCN(Cc3ccccc3)CC2)S(=O)(=O)c2ccccc2)cc1	-14	18%[15.4 µM]	.	-1.3%	-7%	-10	-2%
NS(=O)(=O)c1ccc(CCNC2CC(=O)N(CCc3ccccc3)C2=O)cc1 (configuration not stated)	-17	-7%	1.5	0.6%	10%	-5	13%
O=C(CS(=O)(=O)c1ccccc1)N1CCc2ccccc21	-7	-16%	0.5	.	-8%	-8	17%
CCN(CC)c1ccc(C(=O)NNC(=O)CN2C(=O)NC3(CCCCC3)C2=O)cc1	-3	?	.	-6.3%	0%	1	.
CC(C)CC1=C/C(=C/c2ccc(-c3ccccc3)o2)C(=O)O1	12	?	24	25µM*	-10%	-4	?
COc1ccc(NC(=S)N2CCNC(=O)C2CC(=O)Nc2cccc(Cl)c2C)cc1 (configuration not stated)	-14	-55%[inhibitor]	5.8	-1.7%	-10%	1	3%
COc1cccc(OC)c1C(=O)NC(=S)NCc1ccccc1	4	0%[15.4 µM]	-0.3	.	2%	2	25%
O=C(/C=C/NNC(=O)c1cccc(Br)c1)c1cccc(Br)c1	-14	?	12	0.3%	-12%	5	11%
C/C(=N\O)C(C)(C)Nc1cccc(F)c1	7	-29%	4.3	1.3%	4%	0	0%
COc1ccc(NC(=O)Cc2nnc(SCC(=O)Nc3nccs3)n2C)cc1	-13	1%[15.4 µM]	4.0	.	6%	-2	8%
Cc1cccc([N+](=O)[O-])c1NC(=O)COC(=O)C1CCCO1 (configuration not stated)	3	-39%[inhibitor]	.	0.2%	15%	0	.
Cc1ccccc1CN1CCN(S(=O)(=O)c2cccs2)CC1	2	9%[15.4 µM]	6.0	.	3%	4	-30%
CCC1CCCCN1CCNS(=O)(=O)c1ccc2c(c1)oc(=O)n2C (configuration not stated)	-11	-19%	-1.3	1.4%	8%	18	19%
COc1ccc(NS(=O)(=O)c2cccc(C(=O)OCC(=O)N3CCN(c4ccc(OC)cc4)CC3)c2)cc1	12	-2%	.	0.7%	-7%	?	.
COc1ccc(C(CNC(=O)Nc2ccccc2)N2CCN(C)CC2)cc1 (configuration not stated)	-6	-31%[inhibitor]	6.1	0.3%	9%	11	10%
CCc1nnc(NC(=O)c2ccc(NS(=O)(=O)c3ccccc3)cc2)s1	36	2%	0.3	28µM*!	?	21	12%
CCOC(=O)C(C)Sc1ccc2nnc(-c3ccc(F)cc3)n2n1 (configuration not stated)	7	21%	-0.1	?	-9%	-28	?
CCOc1ccccc1NC(=O)NC(C)c1ccc2c(c1)OCO2 (configuration not stated)	.	.	4.4	.	.	-31	9%
O=[N+]([O-])c1ccc(OS(=O)(=O)Cc2ccccc2)cc1	-6	18%[15.4 µM]	-0.7	.	9%	6	16%
CC(C)(C)NC(=O)C(c1c[nH]c2ccccc12)N(C(=O)Cn1nnc(-c2ccc(Cl)cc2)n1)c1ccccc1F (configuration not stated)	-14	0%	1.7	-0.5%	0%	15	-11%
COc1ccc(S(=O)(=O)Cc2ccc(C(=O)N3CCN(c4cc(C)ccc4C)CC3)o2)cc1	30&-9	2%	-0.2	-3.9%&-1.9%	-40%	-5	-11%
CCOc1ccccc1C1c2[nH]c3ccccc3c2C[C@H]2C(=O)N(C3CC3)CC(=O)N12 (some centres not stated)	-2	-17%	1.2	0.2%	-7%	-11	3%
CCC(=O)Nc1cccc(NC(=O)CSc2nnc(-c3ccc(NS(C)(=O)=O)cc3)n2CC)c1	5	-2%	-11	-0.5%	13%	3	4%
COc1cc(/C=C/C(=O)NC(C)(C)C)ccc1OCc1ccccc1	10	-18%	-0.9	-13%	-25%	10	-12%
N=c1c2c(n(Cc3ccc(Cl)c(Cl)c3)c3c1CCC3)CCCC2	-16	9%	0.6	0.9%	9%	-17	-2%
Cc1cc2c(NC(=O)CCCC(=O)O)cccc2nn1	6	1%[15.4 µM]	11	-1.2%	9%	-20	20%
Cc1ccc(N=Cc2ccc(N(C)C)cc2)cc1	-22	0%	0.0	-2.9%	2%	7	-2%
Cc1cccc(NC(=S)N2CCN(c3cc(C)ccc3C)CC2)c1	-4	9%	5.0	-0.3%	-7%	-4	15%
COc1cc(OC)cc(C(=O)NCCc2cnc[nH]2)c1	14	?	-0.8	-1.3%	19%	-4	1%
Fc1cccc(CSc2ccc3nnc(-c4ccccn4)n3n2)c1	9	?	0.7	.	-2%	-20	0%
CN(CC(=O)Nc1ccccc1Br)C(=O)c1n[nH]c2ccccc12	-6	-47%[15.4 µM]	.	-1.4%	4%	?	.
CC(=O)N1CCN(C(=O)C2(NC(=O)Nc3ccccc3Cl)CCCCC2)CC1	-11	-9%	-1.2	.	7%	3	13%
O=C(Nc1ccc(Br)cn1)c1ccc([N+](=O)[O-])o1	-20	8%[15.4 µM]	-5.2	.	14%	-14	16%
COc1cc(C(=O)N2CCN(C(=O)Cc3ccccc3)CC2)cc(OC)c1OC	2	-4%	-0.1	1.1%	0%	-3	17%
CCCNc1nc(-c2ccccc2)c(C(=O)OCC)cc1C#N	-6	21%	3.0	28µM*	-4%[15.4 µM]	-3	1%
Cc1ccc(NC(=O)CCNS(=O)(=O)c2ccc3[nH]c(=O)oc3c2)c(C)c1	10	31%	-1.2	2.0%	1%	-14	8%
COc1cccc(CNC(=O)CN(C)S(=O)(=O)c2ccc3c(c2)n(C)c(=O)c(=O)n3C)c1	-2	46%	.	-16%	3%	15	13%
Cc1ccc(/C=C2/NC(=O)N(Cc3ccccc3)C2=O)o1	16	-1%	9.1	-1.9%	1%	-4	?
Nc1cc(S(=O)(=O)N2CCOCC2)ccc1N1CCOCC1	8	13%	.	0.8%	3%	.	.
O=S1(=O)CCN2C(=N1)Sc1c2ccc2c1CCCC2	-3	-44%[inhibitor]	0.3	1.6%	-6%	-13	-26%
CCCCC(CC)CNC(=O)c1[nH]c(C)c(C(C)=O)c1C (configuration not stated)	-13	-19%	4.3	-1.4%	-16%	.	13%
Cc1ccc(-c2noc(C3CCCN(C(=O)c4cccc([N+](=O)[O-])c4)C3)n2)o1 (configuration not stated)	-17	9%	-0.5	.	-13%	1	-10%
O=C(COc1ccccc1)N=C1SC2CS(=O)(=O)CC2N1c1ccc(F)cc1F (configuration not stated)	41	16%	3.5	0.9%	5%	2	12%
COc1ccc(OC)c(NC(=O)CCNS(=O)(=O)c2ccc3c(c2)oc(=O)n3C)c1	7&-8	-1%[15.4 µM]	-0.9	1.5%&-2.7%	7%	1	26%

Next results follow.
Structure	TRPML1 blocker	gsp ag	Menin-MLL FL inh	ClpP mod	gsp antag	TRPV1 potentiator	Sfp inh
CCOC(=O)C1=C(C)N(c2ccc(C)cc2)C(=O)/C1=C\c1ccc(O)c(OC)c1	13	-10%	13	-0.8%	2%	-2	45µM*
Cc1cc(C)c(-c2cc(NC(=O)COC(=O)c3ccc(NC(=O)CC#N)cc3)n(-c3ccccc3)n2)cc1C	5	4%	.	-15%	-10%	20	.
Cc1onc(-c2c(Cl)cccc2Cl)c1C(=O)Nc1nc(C(C)(C)C)cs1	-3	-5%[15.4 µM]	0.0	.	?	1	11%
Cc1cc(C)n2c(SCCC(C)C)nnc2n1	29	-37%[inhibitor]	3.8	-28%	-7%	-4	5%
N#Cc1ccc(N2CCCNCC2)nc1	1	?	-1.0	-22%	14%	-2	-9%
Cc1ccn2c(c1)nc(=O)c1cc(S(=O)(=O)N3CCOCC3)ccc12	-8	?	-6.3	3.6%	6%	4	9%
CSc1nc2ccc(S(=O)(=O)Nc3c(C)n(C)n(-c4ccccc4)c3=O)cc2s1	-18	15%	4.1	-3.0%	?	.	14%
CCCCn1c(N)c(N(CCOC)C(=O)c2ccc(-c3ccc(Cl)cc3)o2)c(=O)[nH]c1=O	-20	?	.	?	12%	19	.
O=C(CN1CCN(S(=O)(=O)N2CCCCC2)CC1)Nc1ccc(Br)cc1	1	-6%[15.4 µM]	-1.2	?	3%	-7	5%
CCC(=O)N1CCc2cc(Br)cc(S(=O)(=O)N(C)c3ccc(OC)cc3)c21	-12	-3%[15.4 µM]	-1.5	.	?	15	4%
CC1(C)OC(=O)C(=CNCC(O)c2ccccc2)C(=O)O1 (configuration not stated)	8	-47%	-0.1	-16%	6%	-13	10%
CCOc1ccc(NC(=S)Nc2ccc(OC(F)(F)F)cc2)cc1	-3	-4%	-3.0	-0.2%	14%	14	9%
